Compound activity (PubChem BioAssay)
MLL AF4-AF9 inh: inhibitors of AF4 peptide binding to AF9, primary screen, biochemical, AlphaScreen, biotin-AF4 peptide, FLAG-AF9, single point; inhibition, % at 10 µM; Protein AF-9 (Homo sapiens), P42568; 0.47% of 350,000 active;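 active = every replicate reaching a set inhibition limit, whatever the replicate mean, cut at about 25% in these data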;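 also: 0% = plate neutral control median and 100% = total signal loss; the record names both 10 and 1 µM as test concentration; the first replicate is given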
Target sequence (P42568 whole entry, looked up): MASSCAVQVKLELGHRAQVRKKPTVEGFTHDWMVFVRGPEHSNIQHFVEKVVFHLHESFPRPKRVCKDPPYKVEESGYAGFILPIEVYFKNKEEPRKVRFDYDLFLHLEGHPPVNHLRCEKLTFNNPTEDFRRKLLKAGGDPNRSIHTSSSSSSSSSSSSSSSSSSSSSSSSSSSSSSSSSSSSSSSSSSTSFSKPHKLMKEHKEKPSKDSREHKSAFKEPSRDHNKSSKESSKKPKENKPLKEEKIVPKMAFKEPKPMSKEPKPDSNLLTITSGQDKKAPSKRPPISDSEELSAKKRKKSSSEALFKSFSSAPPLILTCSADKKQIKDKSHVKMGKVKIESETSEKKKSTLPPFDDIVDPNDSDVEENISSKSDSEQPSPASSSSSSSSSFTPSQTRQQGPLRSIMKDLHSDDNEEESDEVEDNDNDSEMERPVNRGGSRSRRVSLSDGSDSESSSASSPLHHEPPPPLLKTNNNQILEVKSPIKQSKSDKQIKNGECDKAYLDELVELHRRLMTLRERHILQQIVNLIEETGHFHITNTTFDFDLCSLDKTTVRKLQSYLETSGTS
Vif TR-FRET: inhibitors of Vif binding to APOBEC3G peptide, primary screen, biochemical, TR-FRET, GST-Vif 1-94, biotin-A3G peptide, dose response retest (AID 1117319) | Virion infectivity factor (Human immunodeficiency virus type 1 group M subtype B (isolate … | one-dose inhibition, %; IC50 in µM for titrated hits | 0.57% of 260,000 active | TR-FRET GST-Vif / biotin-A3G peptide binding; higher % means a stronger effect; test concentration not given here; strong numbers were not always called active;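 active = above the screen mean plus three standard deviations and confirmed in dose response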;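 also: Vif residues 1-94 fused to GST binding biotinylated APOBEC3G peptide 110-148; 0% = full assay without inhibitor and 100% = GST in place of GST-Vif; retest series ran down from 100 µM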
Ecoli rRNA inh: reduced GFP signal of wild-type E. coli, primary screen, bacterial rRNA inhibitor project, GFP/RFP fluorescence, OD600, single point | E. coli WT GFP vs humanized-ribosome RFP mutants, 24 h; hits give low values; DMSO median 0, no signal -100 | GFP signal change (wild-type ribosome), % (test concentration not listed) | 1.6% of 350,000 active;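 active = significant combined selectivity score with lowered wild-type GFP, culture density cut under 30%, mutant RFP and density less affected; inactive = any of these conditions unmet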; also: one replicate is shown; some compounds called inactive have numbers as strong as hits
Ecoli rRNA inh OD600: recorded beside Ecoli rRNA inh, whose call it bears; OD600 change, %; measured here: OD600 growth;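 optical density of the mix in the first replicate; 0 = DMSO median and -100 = no signal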
Ecoli rRNA inh RFP: further read-out of Ecoli rRNA inh, marked with its call; RFP signal change, %; measured here: RFP humanized mutant strains;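 first replicate; 0 = DMSO median and -100 = no signal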
Numbers without * were called inactive; & = joins results of further samples.

nr	compound	MLL AF4-AF9 inh	Vif TR-FRET	Ecoli rRNA inh	Ecoli rRNA inh OD600	Ecoli rRNA inh RFP
1	Cc1ccc([C@H]2N[C@]3(CCCN(Cc4cccn4C)C3=O)[C@H]3C(=O)N(C)C(=O)[C@@H]23)cc1	4.1	1.2%	-4.0	4.0	3.3
2	CC(=O)c1ccc(NS(=O)(=O)c2ccc([N+](=O)[O-])cc2)cc1	-1.3	-2.6%	-5.9	2.0	-1.2
3	S=c1[nH]c2cnc(Cl)nc2[nH]1	-7.3	13.8%	10.2	11.4	0.2
4	Brc1ccc2ncc3ccccc3c2c1	-0.9	-0.3%	-3.0	-13.8	0.9
5	CC(=O)N1CCOc2ccc(S(=O)(=O)N3CCC(C(=O)NCc4ccc(Cl)cc4)CC3)cc21	-1.4	-0.9%	-9.3	-0.5	8.0
6	CC(C)CC1(C)CNC(=O)NC1	-1.8	-0.5%	18.2	12.4	-1.3
7	O=C(OCc1cn([C@@H]2CN(Cc3cccs3)[C@@H](c3ccccc3)C[C@H]2O)nn1)c1ccccc1	-0.4	-2.9%	-3.6	-7.2	4.5
8	CC1CCC(NC(=O)C(NS(=O)(=O)c2ccc(Br)cc2)C(C)C)CC1 (configuration not stated)	-6.5	-6.0%	-2.3	-36.6	1.7
9	COc1cc2nc(CN3CCN(S(=O)(=O)c4ccccc4)CC3)[nH]c(=O)c2cc1OC	-2.3	-4.5%	7.8	-7.9	0.3
10	CCOc1ccccc1NC(=O)C1CCCN(S(=O)(=O)c2ccc3c(c2)CCCN3C(C)=O)C1 (configuration not stated)	-0.5	-1.6%	-2.1	-9.4	1.7
11	O=C(Nc1cccc(C(=O)N2CCCC2)c1)C1CCCCC1	-1.5	-9.4%	10.0	8.9	-2.4
12	COc1cccc(COC(=O)C2CC(=O)N(Cc3ccccc3)C2)c1OC (configuration not stated)	1.2	4.7%	7.3	2.8	2.0
13	c1ccc(CCNc2ccc3c(c2)Cc2ccccc2-3)nc1	4.2	3.7%	-7.3	-9.8	2.4
14	CC(C)N(C(=O)[C@H]1C[C@H](CC(=O)NCCC2=CCCCC2)C(=O)N2CCc3c([nH]c4cc(-c5ccco5)ccc34)[C@]12C)C(C)C	-1.2	4.4%	21.1	21.5	59.3
15	CC(=O)c1ccc(S(=O)(=O)N2CCN(C(=O)CCC3CCCC3)CC2)cc1	-1.1	-0.1%	16.1	9.3	5.1
16	Cc1ccccc1NS(=O)(=O)c1ccc(C(=O)NCc2ccccc2CN2CCCC2)cc1	5.2	2.3%	-5.9	-6.4	4.2
17	O=C1c2ccccc2-c2c1c1ccccc1c(=O)n2CCO	-0.3	3.2%	-24.6	-52.1	-9.0
18	Cc1ccc(S(=O)(=O)N(C)c2ccc(C(=O)NC3CCCCC3)cc2)cc1	-2.3	1.7%	12.8	13.1	-0.3
19	c1ccc(SC23CC4CC(CC(C4)C2)C3)nc1	-1.8	-1.5%	4.9	7.7	-0.8
20	Cc1ccccc1C(C)NC(=O)COC(=O)Cn1cc(C(F)(F)F)ccc1=O (configuration not stated)	-12.5	-11.0%	6.1	2.0	-3.6
21	Cc1sc(NC(=O)C2CC(=O)N(Cc3ccco3)C2)nc1-c1ccccc1 (configuration not stated)	6.9	-0.1%	-5.6	-22.6	-1.2
22	COc1ccc(CC(=O)OCC(=O)Nc2ccc(F)cc2)cc1	-0.6	3.4%	1.6	0.9	-2.1
23	CC(C)CN1C(=O)C(=O)N(CC(=O)N2c3ccccc3NC(=O)CC2C)C1=O (configuration not stated)	2.0	-3.7%	5.8	12.8	-3.5
24	CCOc1ccc(NC(=O)CN(C)C(=O)C2CCCO2)cc1OCC (configuration not stated)	-13.2	-1.5%	-0.7	-1.5	-0.7
25	Cc1cccc(Oc2ncccc2[N+](=O)[O-])c1C	-5.5	-1.6%	-0.2	0.7	-0.2
26	O=C(COC(=O)/C=C/c1cccc(Br)c1)Nc1ccc(Cl)cn1	-11.3	4.5%	0.7	-4.1	-0.3
27	CCOc1ccc(NC(=O)COC(=O)C2CCC(=O)N2)c([N+](=O)[O-])c1 (configuration not stated)	0.0	-1.4%	10.0	4.5	2.4
28	CCN(C[C@H]1N[C@@](Cc2ccccc2)(C(=O)OC)[C@H]2C(=O)N(C)C(=O)[C@@H]12)C(=O)Nc1ccc(C)cc1	2.6	0.7%	2.8	1.3	0.8
29	CC(C)CN1CCC(=O)NC1=S	3.8	-0.7%	13.8	12.2	2.4
30	Cc1ccc(C(C)C)cc1OCC(=O)Nc1ccc(-n2cnnn2)cc1	-10.4	-0.6%	-1.2	-1.2	0.8
31	O=C(NCCc1ccccc1)c1cccc(NC(=O)C2CCCC2)c1	-3.1	-0.6%	-5.9	-8.2	-2.9
32	O=S(=O)(NN=C(c1ccccc1)c1ccccc1)c1ccccc1	-0.1	-6.7%	0.9	6.7	0.0
33	Cc1cccc(N2CCN(C(=O)c3cccc(S(=O)(=O)N4CCOCC4)c3)CC2)c1C	-4.8	-3.1%	-2.9	-20.2	4.1
34	Cc1c2c(nc3ccccc13)OCC2	0.0	4.2%	8.9	11.6	1.2
35	COc1ccc(S(=O)(=O)N(C)C[C@H]2Oc3ccc(NS(=O)(=O)c4cn(C)cn4)cc3C(=O)N([C@H](C)CO)C[C@@H]2C)cc1	-0.6	1.4%	4.2&11.4	0.9&12.5	1.0&5.4
36	CCOC(=O)C1=CNS(=O)(=O)NC1CCc1ccccc1 (configuration not stated)	-0.5	3.7%	-22.1*	-16.2*	-1.6*
37	CCc1cc(C(=O)Nc2cc(S(=O)(=O)N3CCOCC3)ccc2N2CCN(CC)CC2)sc1C	5.4	-0.8%	1.9	3.6	-1.7
38	COc1ccc(S(=O)(=O)N2CCOCC2)cc1NC(=O)/C=C/c1ccccc1	-19.3	-7.0%	-5.6	-4.8	3.4
39	CC(C)(C)S(=O)(=O)N1C[C@H]2CC/C=C\C/C=C\2[C@@H]1CCO	-1.7	0.1%	2.2	-1.6	2.4
40	CCCc1cc2c(cc1NC(=O)Cc1ccccc1)OCO2	1.5	-0.8%	-2.5	-6.8	-1.6
41	CC1NC(=O)COC1c1ccccc1 (configuration not stated)	-71.3	-1.2%	11.8	11.9	-0.3
42	O=C(COCc1ccccc1)N[C@@H]1c2ccccc2CC[C@@H]1OCc1ccccc1	-1.6	-4.2%	-33.9	-32.6	-7.4
43	C=C1C(=O)OC2C=C(CO)C3OC3C3OC3(C)CC(OC(=O)/C(=C/C)COC(C)=O)C12 (configuration not stated)	-5.6	7.2%	7.0	16.1	-0.7
44	COC(=O)[C@@]1(C)[C@H]2C(=O)N(C)C(=O)[C@H]2[C@H]2CN=C(SCc3ccc(C#N)cc3)N21	-1.1	0.2%	10.1	3.8	3.2
45	O=C(Nc1cccc(C(=O)N2CCCCC2)c1)C1CCCC1	-1.2	5.0%	5.6	16.5	-1.1
46	COC(=O)C[C@@H]1C[C@H]2c3cc(NC(=O)Nc4ccccc4F)ccc3O[C@H]2[C@H](CO)O1	-3.8&-19.8	-3.3%	-1.3&-6.8	8.8&-7.2	8.0&4.1
47	COCCn1c(SCC(=O)NC2CCCC(C)C2C)nc2ccccc2c1=O (configuration not stated)	-20.4	-5.6%	-0.6	1.4	-0.4
48	CCN(C[C@H]1N[C@@](Cc2ccccc2)(C(=O)OC)[C@H]2C(=O)N(C)C(=O)[C@@H]12)C(=O)c1ccc(C(C)(C)C)cc1	2.1	-0.2%	0.1	6.2	-0.4
49	O=C(CCCCC(=O)OCC1CCCO1)OCC1CCCO1 (configuration not stated)	-2.3	2.9%	2.4	13.8	-3.2
50	COc1c(C=NNC(N)=O)c(OC)c(OC)c2c1CCO2	-1.7	-6.1%	5.1	6.3	-0.9

Next entries:
nr	compound	MLL AF4-AF9 inh	Vif TR-FRET	Ecoli rRNA inh	Ecoli rRNA inh OD600	Ecoli rRNA inh RFP
51	Nc1nnc(-c2ccc([N+](=O)[O-])o2)s1	1.1	-6.2%	-57.2	-79.3	-16.6
52	COc1ccc(N(CC(=O)NCc2cccs2)S(=O)(=O)c2cccc(C)c2)cc1	-0.1	2.7%	7.8	7.9	1.1
53	O=c1c2ccccc2nnn1-c1ccccc1[N+](=O)[O-]	0.6	-4.4%	-11.1	5.2	-2.6
54	COc1ccc(NC(=O)C[C@H]2C(=O)N(c3ccccc3)C[C@@H]2CSC)cc1	3.3	-7.1%	-14.5	-8.0	-1.7
55	C[C@@H]1CN([C@@H](C)CO)S(=O)(=O)c2ccc(/C=C/c3ccccc3)cc2O[C@@H]1CN(C)Cc1ccc(C(=O)O)cc1	5.9&3.4&2.0	4.3%	-16.8&-5.3	-15.4&-21.9	2.3&-0.3
56	O=C(COc1ccc(Br)cc1CO)Nc1ccc(S(=O)(=O)N2CCCC2)cc1	-0.1	-0.4%	-28.0	-29.0	-1.2
57	O=C(CC(=O)c1ccccc1)c1ccccc1	6.9	-2.7%	-48.5	-74.0	-16.8
58	Cc1ccc(S(=O)(=O)N2CCCN(C(=O)CNC(=O)c3ccccc3)CC2)cc1	0.2	1.0%	10.2	4.7	-0.1
59	O=C(ONC(=O)C1C2C=CC(C2)C1C(=O)NOC(=O)c1ccccc1)c1ccccc1 (configuration not stated)	1.1	-3.2%	12.5	4.2	-5.9
60	Cc1ccc(C)c(SCC(=O)NC(=O)NC2CCCC2)c1	-1.7	-12.8%	-17.1	-25.8	3.4
61	NC1=NC(=O)NC1(c1ccccc1)c1ccccc1	2.1	2.4%	11.6	19.1	2.3
62	CNC(=O)OCN1C(=O)C2CC=CCC2C1=O (configuration not stated)	-6.2	-2.1%	9.0	9.7	2.2
63	Cc1ccc(C(=O)Cc2ccccc2)c(O)c1	3.5	0.2%	-29.9	-42.0	-6.0
64	CCN1Cc2ccccc2-c2ccccc2S1(=O)=O	-3.2	-0.8%	-3.9	3.3	-5.9
65	CCN(C[C@H]1N[C@@](CC)(C(=O)OC)[C@H]2C(=O)N(Cc3ccccc3)C(=O)[C@@H]12)C(=O)COc1ccccc1	-7.7	-0.7%	-11.8	-10.0	-0.5
66	C[C@H](CO)N1C[C@H](C)[C@@H](CN(C)Cc2ccccc2F)Oc2ncc(Br)cc2C1=O	1.6&-3.4	2.3%	-1.3&1.1	0.8&-6.2	-2.6&0.3
67	CN1C(=O)[C@H]2[C@@H](c3ccc(C(F)(F)F)cc3)N[C@]3(CCCN(Cc4ccc(Cl)cc4)C3=O)[C@H]2C1=O	1.4	-0.8%	-29.9	-56.8	-8.4
68	Cn1c(N)cc(=O)[nH]c1=S	-4.1	-2.6%	14.3	13.8	3.1
69	CC(=O)c1ccc(NC(=O)COC(=O)C2CCN(S(=O)(=O)c3cccs3)CC2)cc1	-6.4	6.7%	-11.3	-10.9	2.0
70	CC(=O)CSc1nc2nccnc2[nH]1	-3.7	0.7%	-3.0	-1.5	-0.5
71	COc1cc(/C=C/C(=O)OCC(=O)NC(=O)NC2CCCC2)ccc1OCC#N	-9.3	-0.8%	0.6	-3.1	-0.5
72	C=C(NS(=O)(=O)c1ccc(C)cc1)C(=O)OC	-3.5	-3.6%	5.9	8.5	-1.4
73	Nc1nc2c(ncn2C2CCCC2)c(=O)[nH]1	-5.5	-1.0%	2.0	-1.4	-0.1
74	CC(=NNC(=O)c1ccncc1)c1ccc(Cl)cc1Cl	0.2	5.2%	-9.5	-3.7	-2.0
75	CC(=O)c1sc2c(c1OC(=O)c1ccc(Cl)cc1)c(=O)n(-c1ccccc1)c(=S)n2-c1ccccc1	-9.2	-19.1%	4.5	7.9	6.6
76	c1ccc(N=Nc2ccc(C3=NCCO3)cc2)cc1	4.2	-6.7%	-9.8	6.4	-3.8
77	O=C(NCCc1ccccc1C(F)(F)F)c1cc(COc2ccccc2)on1	-7.2	7.8%	-3.5	6.0	-0.9
78	c1ccc(NCCSc2nc3ccccc3s2)cc1	-1.0	-4.4%	7.4	9.0	3.4
79	O=C1CSC(=S)N1N=Cc1ccccc1O	1.9	11.5%	-3.7	3.8	0.0
80	COCCN(C(=O)COC(=O)/C=C/c1cccc(OC)c1)c1c(N)n(CC(C)C)c(=O)[nH]c1=O	3.5	0.9%	3.3	9.8	-1.1

Among those listed so far, 3 have a CF3 group.
nr	compound	MLL AF4-AF9 inh	Vif TR-FRET	Ecoli rRNA inh	Ecoli rRNA inh OD600	Ecoli rRNA inh RFP
20	Cc1ccccc1C(C)NC(=O)COC(=O)Cn1cc(C(F)(F)F)ccc1=O (configuration not stated)	-12.5	-11.0%	6.1	2.0	-3.6
67	CN1C(=O)[C@H]2[C@@H](c3ccc(C(F)(F)F)cc3)N[C@]3(CCCN(Cc4ccc(Cl)cc4)C3=O)[C@H]2C1=O	1.4	-0.8%	-29.9	-56.8	-8.4
77	O=C(NCCc1ccccc1C(F)(F)F)c1cc(COc2ccccc2)on1	-7.2	7.8%	-3.5	6.0	-0.9

The list is partial, so the mix of outcomes need not match the whole.
